Source: PubChem
LANA-H2A inh: blockers of LANA interaction with H2A/H2B – biochemical, FP readout, HTS, primary screen. Protein LANA1 (Human herpesvirus 8 type P (isolate GK18)), Q9QR71. hit rate 0.6% among 320,000. inhibition, % (no concentration beside the values). cell-free LANA-H2A/H2B peptide, fluorescence polarization. AID 2629, 2010; in the data active = inhibition mostly above about 10%, no sharp cut-off; inactive = mostly below about 6.7%;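 also: stock transfer was 7.5 nL into about 10 µL; 0% = median of vehicle wells and 100% = median of positive control wells; one replicate is shown; the record names a cut of 25% in any replicate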
Target sequence (Q9QR71 whole entry, looked up): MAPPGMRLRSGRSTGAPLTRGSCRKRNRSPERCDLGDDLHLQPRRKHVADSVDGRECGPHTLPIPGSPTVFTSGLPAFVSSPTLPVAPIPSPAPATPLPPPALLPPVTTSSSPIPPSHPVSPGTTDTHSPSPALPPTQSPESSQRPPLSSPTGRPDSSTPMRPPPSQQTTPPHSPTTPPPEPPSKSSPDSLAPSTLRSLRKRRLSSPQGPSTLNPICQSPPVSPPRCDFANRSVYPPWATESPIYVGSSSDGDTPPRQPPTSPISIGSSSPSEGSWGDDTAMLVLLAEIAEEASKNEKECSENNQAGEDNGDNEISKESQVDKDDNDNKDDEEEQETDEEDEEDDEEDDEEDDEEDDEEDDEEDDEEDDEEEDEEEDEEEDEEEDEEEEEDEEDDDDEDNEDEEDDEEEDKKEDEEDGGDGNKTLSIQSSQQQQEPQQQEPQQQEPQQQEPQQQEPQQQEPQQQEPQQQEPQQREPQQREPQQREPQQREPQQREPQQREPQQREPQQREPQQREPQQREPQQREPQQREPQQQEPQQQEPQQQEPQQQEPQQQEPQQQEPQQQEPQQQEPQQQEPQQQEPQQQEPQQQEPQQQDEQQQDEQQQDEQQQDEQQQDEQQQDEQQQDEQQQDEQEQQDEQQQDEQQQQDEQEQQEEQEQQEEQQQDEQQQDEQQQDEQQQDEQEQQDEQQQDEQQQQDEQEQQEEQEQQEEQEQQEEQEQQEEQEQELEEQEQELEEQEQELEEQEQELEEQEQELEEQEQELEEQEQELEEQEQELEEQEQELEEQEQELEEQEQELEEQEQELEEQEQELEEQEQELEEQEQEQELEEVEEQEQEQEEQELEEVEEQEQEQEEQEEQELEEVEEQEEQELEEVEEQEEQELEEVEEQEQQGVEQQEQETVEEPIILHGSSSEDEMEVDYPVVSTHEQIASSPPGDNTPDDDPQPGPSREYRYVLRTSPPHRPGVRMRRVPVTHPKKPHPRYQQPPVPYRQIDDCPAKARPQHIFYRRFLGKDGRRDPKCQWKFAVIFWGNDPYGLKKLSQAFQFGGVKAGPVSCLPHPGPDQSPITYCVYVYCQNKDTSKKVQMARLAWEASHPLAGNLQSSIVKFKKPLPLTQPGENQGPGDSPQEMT
Beta2AR agonist: beta2AR agonists driving receptor internalization, primary screen, cell-based, FAP fluorogen, flow cytometry; Am2.2-beta2AR cells; reference of the scale not given here; hit rate 0.43% among 340,000; response, % (test concentration not listed); Beta-2 adrenergic receptor (Homo sapiens), P07550;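 active = response above a set limit, near 3 SD of response in nonfluorescent compounds, cut at about 42% in these data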;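 also: stock transfer was 100 nL into about 11 µL; a reference agonist was the positive control; negative values mostly stem from fluorescent compounds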
HNF4A DNA FP: change in binding of human HNF4A to DNA, primary screen, biochemical, fluorescence polarization, FITC-DNA. 1 h. Hepatocyte nuclear factor 4-alpha (Homo sapiens), P41235. hit rate 0.3% among 360,000. AID 1224865, 2016. activity change, % at 10 µM; in the data active = activity change above about 30%, passing the limit was not always enough;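 also: controls were the assay level and a saturating level of protein; the project sought stronger binding though the title names inhibitors; some compounds called inactive have numbers as strong as hits; positive values seem to mean higher polarization but the record does not say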
Vif A3G: inhibitors of Vif binding to APOBEC3G peptide, primary screen, biochemical, TR-FRET, GST-Vif 1-94, biotin-A3G peptide, dose response retest (AID 1117319); Virion infectivity factor (Human immunodeficiency virus type 1 group M subtype B (isolate …; TR-FRET GST-Vif / biotin-A3G peptide binding; higher % means a stronger effect; test concentration not given here; strong numbers were not always called active; inhibition, %; hits with a dose series show IC50 in µM; hit rate 0.57% among 260,000;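 active = above the screen mean plus three standard deviations and confirmed in dose response; inconclusive = results disagree or hit not tested in dose response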;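 also: Vif residues 1-94 fused to GST binding biotinylated APOBEC3G peptide 110-148; 0% = full assay without inhibitor and 100% = GST in place of GST-Vif; retest series ran down from 100 µM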
Bfl-1 A1 inh: caspase 3/7 activation in MEF A1-2A-BIM cells, primary screen, A1 inhibitor project, cell-based, luminescence, HTS; caspase activation, % (test concentration not listed); hit rate 0.066% among 330,000; AID 2462, 2010; Caspase-Glo 3/7 luminescence, 3 h; percent of clofoctol response, vehicle zero;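 active = over half of replicate activation scores above 10%, or exactly half above 10 with the replicate mean above 10; inconclusive = replicate mean below 10 yet half the replicates above 10; inactive = over half of replicates below 10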;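 also: wells of about 30 µL received 50 nL stock; many hits fall short of the cut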
E coli growth: E. coli growth inhibition, primary screen, OD600; Escherichia coli growth, 23 h; active compounds read low; OD600 absorbance (test concentration not listed); hit rate 0.21% among 330,000; AID 1053175, 2014;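 active = OD600 absorbance below the run mean of sample wells minus 3.6 SD, in any replicate, cut at about 0.56 in these data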;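 also: stock transfer was 300 nL into about 60 µL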
UCH37 inh: inhibitors of human UCH37 deubiquitinase, primary screen, biochemical, Ub-AMC cleavage, fluorescence; Ubiquitin carboxyl-terminal hydrolase isozyme L5 (Homo sapiens), Q9Y5K5; purified proteasome/UCH37; inhibition, % (concentration not given with the values); hit rate 0.33% among 330,000; AID 588478, 2011;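 active = mean of two replicates above 20%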;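 also: 0% = compound-free wells with enzyme and 100% = wells lacking proteasome; stock transfer was 100 nL into about 20 µL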
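Material: Human UCH37 enzyme supplied as purified proteasome complex | Schedule: 30 min preincubation with enzyme, 25 min cleavage at room temperature | Detection: AMC fluorescence 355/460 nm | Measure: % inhibition of Ub-AMC cleavage fluorescence | Controls: Wells without proteasome as full block, compound-free enzyme plus substrate as uninhibited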
* hit, by the source's call; ? = inconclusive; . = not tested or not shown; & = joins results of further samples.

molecule	Vif A3G	LANA-H2A inh	Beta2AR agonist	Bfl-1 A1 inh	HNF4A DNA FP	UCH37 inh	E coli growth
CC(C(=O)N1CCN(C)CC1)N1C(=O)c2ccccc2C1=O (stereo not drawn)	-4%	3.2	2	-2.5	-0.8	-0.8	0.71
Cc1nc2ccccc2nc1CN1CCC(CO)(CC2CCCCO2)CC1 (stereo not drawn)	-3%	12	-9	-0.4	-1.6	-1.7	0.65
CCOC(=O)c1c(NC(=O)C2C3C=CC(C3)C2C(=O)O)sc2c1CC(C)CC2 (stereo not drawn)	.	3.8	12	0.6	-3.2	-6.8	0.73
CSCCC(NC(=O)c1cccc([N+](=O)[O-])c1)C(=O)O (stereo not drawn)	-1%	3.9	4	-0.2	0.9	5.4	0.72
O=C(CCCn1c(=S)[nH]c2ccsc2c1=O)Nc1ccc2c(c1)OCCO2	-5%	-4.9	0	1.4	3.6	3.1	0.68
CCOC(=O)c1sc2nc(N3CCOCC3)c3c(c2c1N)CCC3	29%	-0.1	4	-1.4	4.9	-393	0.73
COc1ccccc1[C@@H]1C(c2cccc(Cl)c2)=NN(c2ccccc2)[C@H]1C(=O)N1CCOC1=O	29%	-1.9	4	0.3	-5.3	-95	.
COC(=O)c1c(NC(=O)CN2CCC3(O)CCCCC3C2c2cc(OC)ccc2OC)sc(C)c1C (stereo not drawn)	-5%	9.6	13	-0.3	12	-6.0	0.7
O=C(Cc1ccccc1)Nc1ccc(NC(=O)c2cccc(Cl)c2)cc1	17%	10	9	1.5	3.5	-4.4	0.69
CCN(CC)C(=O)CSc1nc2c(sc(=S)n2CC)c(=O)n1-c1ccccc1	5%	3.0	-7	-0.2	7.8	9.6	0.67
O=C(Nc1ccc(CN2CCOCC2)cc1)c1cc(Br)ccc1Cl	.	0.4	-7	1.6	-0.3	5.0	0.7
O=C(NCc1ccccc1)C(=O)NCC1OCCN1S(=O)(=O)c1cccs1 (stereo not drawn)	5%	0.9	4	?	1.6	3.0	0.68
O=C(NCCCNC(=O)c1c(Cl)cccc1Cl)c1c(Cl)cccc1Cl	.	-0.8	3	-1.0	-3.4	2.5	0.63
Cc1cccc(N=Nc2c(O)[nH]c3ccc(F)cc23)c1	-5%	-1.9	5	-4.0	64	.	.
COc1ccc(NC(=O)c2ccc([N+](=O)[O-])s2)c([N+](=O)[O-])c1	.	0.3	2	-1.3	-1.8	5.0	0.67
COc1ccc(OC)c(C2C(C(C)=O)=C(O)C(=O)N2c2ccc(F)cc2)c1 (stereo not drawn)	24%	1.3	12	1.6	-1.2	6.7	0.69
COc1ccc(NC(=O)C2CCCN2C(=O)NC2CCCCC2)cc1OC (stereo not drawn)	-5%	1.0	6	1.2	1.7	0.7	0.71
COc1cccc(N2CCN(C(=O)CCc3nnc4ccc(N5CCCC5)nn34)CC2)c1	-3%	-1.3	-19	0.6	2.4	7.0	0.69
O=S1(=O)CCO[C@H]2Cc3ccccc3[C@H]2N1Cc1cccc(F)c1	.	-1.7	-2	0.5	5.2	1.0	.
Cc1csc(NC(=O)Cc2ccc(Br)cc2)n1	.	0.5	0	0.0	0.0	0.3	0.63
CC(=O)c1cccc(S(=O)(=O)N2CCN(c3nc4cc(C)cc(C)c4cc3C#N)CC2)c1	-107%	8.7	5	-0.4	11	-36	0.69
CN(C)NC(=S)Nc1cccc(C(F)(F)F)c1	-4%	-4.1	-2	0.4	0.7	4.9	0.67
CN(CC(=O)Nc1ccc(Cl)c(Cl)c1)C(=O)C1CCC1	-10%	0.4	-2	1.0	-2.0	1.1	0.67
O=C(NC1(Cc2ccccc2)CCN(CCc2cccs2)C1=O)c1ccccc1 (stereo not drawn)	.	3.6	-1	-0.5	-1.6	0.2	0.68
Cc1ccc(S(=O)(=O)CCC(=O)OCC(=O)N2CCN(c3ccccc3)CC2)cc1	.	3.0	5	0.2	2.1	2.9	0.67

The final 2 records of the section before come first, to join the parts.
molecule	Vif A3G	LANA-H2A inh	Beta2AR agonist	Bfl-1 A1 inh	HNF4A DNA FP	UCH37 inh	E coli growth
O=C(NC1(Cc2ccccc2)CCN(CCc2cccs2)C1=O)c1ccccc1 (stereo not drawn)	.	3.6	-1	-0.5	-1.6	0.2	0.68
Cc1ccc(S(=O)(=O)CCC(=O)OCC(=O)N2CCN(c3ccccc3)CC2)cc1	.	3.0	5	0.2	2.1	2.9	0.67
Cc1ccc(S(=O)(=O)c2c(C)nn(C(C)(C)C)c2OC(=O)c2cccs2)cc1	-7%	-2.1	1	0.3	2.0	-0.4	0.77
O=C(CCCN1C(=O)c2cccc3cccc(c23)C1=O)N1CCc2ccccc2C1	7%	-2.9	-8	0.4	-2.3	-5.2	0.67
CCCC(=O)Nc1ccc(Sc2ccc([N+](=O)[O-])cc2)cc1	4%	2.3	-6	0.5	0.3	3.2	0.77
CCCNNC(=O)C(O)(c1cccc(C)c1)c1cccc(C)c1	.	-2.9	3	0.0	-3.7	4.5	0.64
O=C(Nc1cccc(NC(=O)c2cccnc2)c1)c1ccccc1	.	8.1	-3	-1.0	3.4	1.5	0.65
CCc1c(C)nc2cc(C)[nH]n2c1=O	9%	-10	1	0.1	1.8	-4.0	0.69
CC(C)[C@H](NC(=O)Nc1ccc(S(N)(=O)=O)cc1)C(=O)O	5%	1.1	-7	1.4	-1.1	3.9	0.66
O=[N+]([O-])c1ccc2c(c1)Nc1nc3ccccc3nc1N2	.	-7.7	14	-1.8	4.9	1.0	0.65
Cc1ccsc1C(=O)OCC(=O)Nc1cccc(F)c1	1%	-5.2	0	0.5	2.3	2.0	0.68
COc1ccc(Oc2nc3c(c(=O)n(C)c(=O)n3C)n2C)cc1	.	-6.2	13	-0.8	-7.9	5.0	0.69
CCCn1cnnc1CNC(=O)C1CCC(=O)N(CCc2cccc(F)c2)C1 (stereo not drawn)	.	-2.8	0	0.8	-0.8	0.9	0.67
CCOC(=O)c1cc(CC)sc1NC(=O)COc1ccc2c(C)cc(=O)oc2c1	1%	-0.4	13	0.3	-1.7	-70	0.71
Cn1c(SCC(=O)NCCNC(=O)CSc2nnc(C(F)(F)F)n2C)nnc1C(F)(F)F	17%	6.0	-5	-0.4	0.5	1.1	0.66
Cc1ccc(N(C(C)C(=O)Nc2ccc(S(=O)(=O)N3CCOCC3)cc2)S(C)(=O)=O)cc1C (stereo not drawn)	-7%&4%	-4.6	-4	-0.7	2.6	2.2	0.69
C=CCc1cccc(CNc2nc3ccccc3n2CC)c1O	4%	-0.5	0	0.4	-2.6	1.8	0.71
COc1ccc(/C=N/N=C2/NC(=O)C(CC(=O)NC(N)=O)S2)cc1 (stereo not drawn)	-10%	2.1	4	-0.6	3.3	.	.
CN(C)C(N)=NCCC[C@H](N)C(=O)O	.	-1.2	-6	-0.5	-3.4	1.5	.
CCCNc1nc(Nc2ccc(C)cc2)nc(N2CCCC2)n1	8%	-1.9	-1	-1.1	-5.2	0.8	0.63
CC[C@@]1(c2ccccc2C)C(=O)N(C(=O)OC)N1C(=O)OC	.	-3.8	14	-0.4	-1.8	5.2	.
NNC(=O)CS(=O)(=O)c1ccc(Cl)cc1	2%	0.8	-6	0.8	0.0	4.1	0.69
COC(=O)c1ccc2c(=O)n(CCN3CCOCC3)c(SCC(=O)Nc3ccccc3Cl)nc2c1	.	0.1	-5	0.6	-2.6	1.9	0.7
O=C(c1cccc(C(F)(F)F)c1)N1CCN(CCc2ccccc2)CC1	-3%	0.4	-3	-0.5	-0.1	4.4	0.72
Cc1ccc(CN2C(=O)S/C(=C\c3ccccc3OCC(=O)O)C2=O)cc1	.	-1.5	2	0.2	4.4	6.5	0.69
CCn1c(=O)c2ccccc2n(Cc2cccc(C)c2)c1=O	.	0.2	-8	0.5	-6.1	2.6	0.65
CC(C)Sc1nc2ccccc2n1CC(N)=O	-1%	2.2	-3	1.0	0.1	2.6	0.71
c1ccc2c(N3CCCCC3)nc(N3CCCCC3)nc2c1	-3%	0.9	2	1.3	0.4	-36	0.67
CCc1ccc(-c2cc(C)no2)cc1S(=O)(=O)N1CCN(c2cccc(C)c2C)CC1	-2%	4.1	0	-0.6	3.6	-2.2	0.71
O=C(CC(c1ccccc1)c1ccccc1)OCn1nnc2ccccc2c1=O	1%	-1.4	-5	1.4	2.6	2.0	0.75
Cc1cc(NCCO)c2ccccc2n1	3%	-1.4	-2	1.3	-3.0	5.7	0.67
NC(N)=NS(=O)(=O)c1ccc(NC(=S)NC(=O)c2ccc3c(c2)OCO3)cc1	1%	2.8	14	1.1	-2.0	5.5	0.71
O=C(CCc1nnc(Cc2ccc(-c3ccccc3)cc2)o1)N1CCCC1	?	-2.4	-11	-0.3	-3.2	.	.
O=C(O)c1cccc(S(=O)(=O)N2CCCC2)c1	33%	-45	-3	-0.4	1.6	1.6	0.63
Cc1ccc(O)c(-c2cc(-c3cccc(Br)c3)n[nH]2)c1	-4%	-10	1	1.9	3.7	-2.1	0.63
c1coc(CNc2ncnc3[nH]ncc23)c1	4%	-1.4	-4	-0.7	0.8	3.7	0.68
CCOc1ccccc1OCCOCCN1CC(C)OC(C)C1 (stereo not drawn)	19%	-0.1	1	2.6	0.3	.	.
Cc1ccc(S(=O)(=O)CCC(=O)OCC(=O)N(C)c2ccccc2)cc1	5%	.	-1	.	-1.9	-1.5	0.71
CCOC(=O)C1CCN(C(=O)COc2ccc(S(=O)(=O)N3CCCC3)cc2C)CC1	4%	0.0	1	0.7	-2.1	1.7	0.71
O=C(CCn1cnnn1)N1CCCC(Nc2ccc(F)c(F)c2)C1 (stereo not drawn)	12%	12	3	-0.4	-1.3	4.8	0.72
Cc1cc2c(=O)n(CC(=O)N3CCN(c4ccccc4)CC3)cnc2s1	2%	-2.7	0	-0.8	0.2	2.8	0.82
Cc1ccc(CNC(=O)CCn2ccc3cc(S(=O)(=O)N4CCCC4)ccc32)cc1	.	1.6	-2	1.3	1.6	2.2	0.69
CCn1cc(C(=O)O)c(=O)c2cc(F)c(N3CCN(C(=S)NC(=O)c4ccccc4C)CC3)cc21	-1%	-3.8	1	0.8	-0.7	-31	0.071*
O=[N+]([O-])c1cc(/C=N/Nc2nc(N3CCCCC3)nc(N3CCCCC3)n2)ccc1O	-4%	2.7	3	2.4	4.3	.	.
COc1ccccc1-c1nnc(SCC(=O)Nc2ccc3[nH]c(=O)[nH]c3c2)n1N	.	-1.9	3	1.1	-1.1	.	.
COc1ccc(COC(=O)Oc2ccc(CNC(C)=O)cc2OC)c([N+](=O)[O-])c1	.	12	6	0.2	1.8	4.5	0.66
O=C(/C=C/c1ccc(S(=O)(=O)N2CCOCC2)cc1)N(CCO)Cc1ccccc1	.	-0.2	21	1.3	1.4	2.0	0.7
COc1ccc(-c2cc(C(F)(F)F)nc(NCc3ccco3)n2)cc1OC	-4%	-2.3	-11	-0.6	-1.3	-49	0.73
O=C(Nc1cccc(NC(=O)c2nccc3ccccc23)c1)c1ccco1	0%	0.1	5	-0.6	1.4	4.4	0.63
